MgrA DNA FP: alters Staphylococcus aureus MgrA binding to DNA | inhibition, %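 (about 10 µg/mL by stock and volumes)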 | fluorescence polarization | 84,000 tested, 0.13% active | AID 602314;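 active = above 50% in either of two replicates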;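 note: 0% = protein plus DNA without compound and 100% = DNA alone without protein; higher means less MgrA bound to DNA so lower polarization; one replicate is shown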
S aureus helic: blocks Staphylococcus aureus DNA helicase; purified S. aureus helicase, fluorescence unwinding assay; about half of the hits fall short of the stated cut; inhibition, %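 (tested at about 80 µM)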; 120,000 tested, 0.05% active; AID 485395;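 active = both duplicates at 50% or more, or one of them with a favoured structure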;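 note: 0% = mean of negative control wells and 100% = mean of positive control wells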
Numbers without * were called inactive; . = no result given; & = joins results of further samples. Only part of the results is shown. The share of hits here may be higher or lower than overall.

Structure,MgrA DNA FP,S aureus helic
O=C(O)C(c1ccccc1)(c1ccccc1)c1ccccc1,-1.1,.
Cc1cc(F)ccc1S(=O)(=O)Nc1ccccc1C(=O)N1CCCCC1,.,0
O=C(CCCSc1cccc[n+]1[O-])c1ccc(F)cc1,.,-1
COCCNS(=O)(=O)c1c[nH]c(C(=O)OC)c1,.,-22
CCc1ccccc1NS(=O)(=O)c1ccc2[nH]cc(C(=O)NC(C)CC)c(=O)c2c1 (stereo not drawn),.,-25
CN(C)CC(C)(C)NS(=O)(=O)c1ccccc1,1.0,-21
Nc1nc(N)nc(SCC(=O)N2CCCC2)n1,.,4
Cc1cc2c(cc3c(SCC(=O)NCc4ccco4)nncn32)o1,13,-1
CCCn1c(Nc2ccccc2)nc2ccccc21,0.0,0
Cc1cc(C)c(N=C=Nc2c(C)cc(C)cc2C)c(C)c1,1.4,.
Cc1cc(C(=O)O)c(Cl)nc1C,-3.6,-2
N#Cc1c(Nc2ccc(Cl)cc2)n[nH]c1N,.,-12
CC1CN(S(=O)(=O)c2ccc(NC(=O)C(C)Oc3ccc(F)cc3)cc2)CC(C)O1 (stereo not drawn),2.5,29
O=S(=O)(c1ccc2c(c1)OCCO2)N1CCCC1c1cccs1 (stereo not drawn),.,-5
C(=N\c1nc2ccccc2[nH]1)/c1ccc2c(c1)OCO2,3.8,14
Cc1ccc(-n2c(C)cc(C=C3C(=O)NC(=O)NC3=O)c2C)cc1,22,-51

Shown with values under each structure: entries from further up.
Each structure is followed by: MgrA DNA FP | S aureus helic
> CCCn1c(Nc2ccccc2)nc2ccccc21
  0.0 | 0
> Cc1cc(C)c(N=C=Nc2c(C)cc(C)cc2C)c(C)c1
  1.4 | .
> Cc1cc(C(=O)O)c(Cl)nc1C
  -3.6 | -2

Next section
Structure,MgrA DNA FP,S aureus helic
COC(=O)COc1ccc(C)cc1C(C)(C)C,0.5,24
CC(=O)N1N=C(c2c(-c3ccccc3)c3cc(Br)ccc3[nH]c2=O)CC1c1ccco1 (stereo not drawn),-0.6,.
CN1CC[n+]2cnc3ccccc3c21,.,8
Cc1cc(=O)oc2cc(OCC(=O)OCC(=O)Nc3ccc4c(c3)OCCO4)ccc12,.,-7
COCCN1C(=O)/C(=C2/C(=O)N(Cc3ccc(C)cc3)c3ccccc32)SC1=S,.,-14
Nc1n[nH]c(-c2ccccc2)c1Br,-6.3,.
O=C(Cn1nnc(-c2ccccc2F)n1)NCc1ccc2c(c1)OCO2,2.8,10
O=C(COC(=O)c1n[nH]c2ccccc12)Nc1ccc(S(=O)(=O)N2CCCC2)cc1,.,-6
CC(=O)ON=C1CC(C)(C)NC(C)(C)C1,.,19
COC(=O)c1scc2c(=O)cc(C(F)(F)F)[nH]c12,-1.0,.
O=C(Nc1cccc(C(=O)N2CCN(c3ccccc3)CC2)c1)C1=CSCCO1,.,22
O=[N+]([O-])c1cccnc1Sc1ccccn1,-1.4,.
COC(=O)c1c(O)cc(=O)n2c1CCC2,.,-2
Cc1cccc(OCC(O)CN2C(C)CCCC2C)c1 (stereo not drawn),.,6
CN1C(=O)c2ccccc2Sc2ccc(NC(=O)N3CCCCC3)cc21,.,15
COc1ccc(CCC(=O)NC2CCC(C)CC2)cc1 (stereo not drawn),.,-3
Nc1c(C(=O)c2ccc(Cl)cc2)oc2nc(-c3ccco3)cc(-c3cccs3)c12,4.0,.
Cc1ccc(/C=C2\N=C(c3ccccc3)OC2=O)o1,2.8,4
COc1cc(OC)c(NC2c3ncccc3C(=O)N2Cc2cccs2)cc1Cl (stereo not drawn),-4.3,14
Cc1ccc(C(=O)CC(SC2CCCCC2)C(=O)O)cc1 (stereo not drawn),-3.5,4
COc1ccc(-c2nc3sc4c(c3c(=O)o2)CCCC4)cc1OC,-1.3,.
CC(C)c1ccc(S(=O)(=O)Nc2cc3c4c(oc3c3ccccc23)CCCC4)cc1,2.5,7
CN(C)c1nnnn1Cc1ccc(Cl)cc1Cl,-0.1,.
Cn1ccnc1C(=O)c1cc(Sc2ncccc2C#N)nc2ccccc12,.,-2
C=CCc1cccc2cc(C(=O)NCCC3=CCCCC3)c(=O)oc12,.,-27
O=C(CSc1nnc(-c2ccco2)o1)c1ccc([N+](=O)[O-])cc1,0.9,.
COc1cc(-c2c(C#N)c(N)n3c(nc4ccccc43)c2C#N)ccc1OC(=O)N(C)C,1.7,.
CCc1cc(C(=O)c2ccc(OC)cc2)c(NC(=O)CSCC(=O)O)s1,-1.9,.
CCOC(=O)c1c(N2CCCC2=O)sc(C)c1CC,.,-6
O=C(O)CC12CC3CC(CC(C3)C1)C2,-3.2,.
COC(=O)c1c(C)oc2ccc(OC(=O)c3ccc(OC)cc3)cc12,1.5,-5
CC1CCN(C(=O)c2ccc(-c3nn(C)c(=O)c4ccccc34)cc2)CC1,1.8,11
C=CCN1C(=O)CCNc2ccccc21,-3.9,-7
COc1ccc(C2C(C#N)=C(N)OC3=C2C(=O)CC(c2ccccc2Cl)C3)cc1 (stereo not drawn),-0.3,.
CCOC(=O)c1c(C)nn(-c2ncccc2N)c1C,3.0,.
O=[N+]([O-])c1cc(C(F)(F)F)ccc1NCC1CC1,-1.7,.
CCCS(=O)(=O)c1ccc(NC(=O)Nc2ccc(Cl)cc2Cl)cc1,0.4,.
CN1C(=O)/C(=C\c2ccc(Cl)cc2)SC1=S,.,-20
N=c1oc2ccccc2oc1=N,-1.4,-7
CCCc1nc2cc3sc(CCC)nc3cc2s1,.,24
Cc1ccc(CNC(=O)c2oc3ccccc3c2-n2cccc2)cc1,-1.2,.
Nn1c(SCC(=O)c2ccc(Cl)cc2)nc2ccccc2c1=O,.,4
CC(=O)N1CCN(c2nc(C)nc3sc(-c4ccccc4)cc23)CC1,.,-5
COC1c2c(c(-c3ccccc3)nn2-c2ccccc2)-c2nc3ccccc3n21 (stereo not drawn),.,-14
NC(=O)C1CCN(C(=O)NC2CCCCC2)CC1,-1.3,7
O=C(O)CCc1nc2ccccc2s1,.,-16
OCCCCn1cnc2cc(Cl)c(Cl)cc21,.,-16
COC(=O)C1CCN(c2cc(=O)n(-c3ccc(OC)cc3)c(=O)[nH]2)CC1,.,12
CC1CC(C)CN(C(=O)COC(=O)c2ccccc2NS(=O)(=O)c2ccc3c(c2)OCCO3)C1 (stereo not drawn),.,-2
CCc1ccc(NC(=O)C(C)OC(=O)c2c(F)cccc2F)cc1 (stereo not drawn),2.6,-9
CC(=O)Nc1ccc(NC(=O)CCCc2c[nH]c3ccccc23)cc1,-2.5,1
O=c1[nH]c2sc3c(c2c2nncn12)CCCC3,0.1,.
COc1ccc2c(COC(=O)c3ccccc3NCCO)cc(=O)oc2c1,.,15
O=C(CCc1ccco1)N1CCCC(c2nc3ccccc3s2)C1 (stereo not drawn),.,5
COCc1[nH]nc2c1C1(C(=O)Nc3ccccc31)C(C#N)=C(N)O2 (stereo not drawn),-0.3,-16
CC1CCN(C(=O)COc2ccc3c4c(c(=O)oc3c2)CCCCC4)CC1,1.3,-7

Later entries:
Structure,MgrA DNA FP,S aureus helic
Cc1nc(-c2cc(C#N)c(SCCNS(=O)(=O)c3cccc(C(F)(F)F)c3)nc2C)cs1,-0.6,.
COc1ccccc1C1CCN(C(=O)c2ccccc2)CC1,-0.5,.
COc1cc(C(=O)NCc2nnc(SCC(=O)N3CCc4ccccc43)o2)cc(OC)c1OC,-0.2,11
O=C(CCN1CCCCC1)N/N=C/c1cccnc1,5.2,8
Cc1ccc(C(=O)NC(=O)OC[C@@H]2CCCN3CCCCC23)cc1 (stereo partly drawn),-2.1,6
c1ccc2c(c1)CCc1c-2nc2ccccc2c1N1CCOCC1,-0.5,.
CCOC(=O)N1CCN(CCC(=O)c2ccc(OC)cc2)CC1,-2.8,13
CC(NCc1ccccc1)C1CC1 (stereo not drawn),1.3&-1.4,15

By substructure, the entries above containing a CF3 group
Structure,MgrA DNA FP,S aureus helic
COC(=O)c1scc2c(=O)cc(C(F)(F)F)[nH]c12,-1.0,.
O=[N+]([O-])c1cc(C(F)(F)F)ccc1NCC1CC1,-1.7,.
Cc1nc(-c2cc(C#N)c(SCCNS(=O)(=O)c3cccc(C(F)(F)F)c3)nc2C)cs1,-0.6,.

Going on with the list:
Structure,MgrA DNA FP,S aureus helic
N#Cc1ccc(COC(=O)CSc2nnc(C3CCCCC3)n2N)cc1,.,-10
O=C(Nc1ccc(S(=O)(=O)N2CCCCC2c2cccnc2)cc1)c1ccc(Br)o1 (stereo not drawn),.,21
Cc1ccc(NC(=O)COC(=O)C2CCN(C(=O)OC(C)(C)C)CC2)cc1C,.,-11
COc1ccc(OCC(O)CNC(=S)Nc2ccc3c(c2)OCCO3)cc1 (stereo not drawn),.,-9
Cc1c(-c2ccccc2)nnn1-c1ccc(F)cc1F,-0.4,.
Cc1csc(N(C(=O)c2ccccc2)c2ccccc2)n1,.,-10
Cc1ccc(N2C(=O)NC(=O)/C(=C\c3ccc(-c4ccccc4C(=O)O)o3)C2=O)cc1,4.7,.
O=C(O)c1cc2c(s1)CCCC2,-3.7,16
Fc1cccc(Cl)c1C=NCc1c(F)cccc1Cl,-0.8,.
O=C(COC(=O)c1ccc(CS(=O)(=O)c2ccccc2)o1)c1ccc[nH]1,.,-4
Brc1ccc(NCc2c[nH]c3ccccc23)cc1,1.9,10
COCc1cc(=O)oc2cc(NC(=O)c3ccc(C(C)(C)C)cc3)ccc12,-2.5,.
N#CC1=C(O)Cn2c1nc1ccc(Br)cc1c2=O,.,6
O=C1CCC(C(=O)Nc2ccccc2)=NN1,.,1
CCOC(=O)c1ccc2nsnc2c1,-0.7,20
Cc1cn(C2CC3OCC3O2)c(=O)[nH]c1=O (stereo not drawn),.,35
O=C(NCc1ccncc1)c1cccs1,.,-6
O=c1oc2ccc3ccccc3c2cc1-c1nc(-c2ccccc2F)no1,.,-83
Cc1occc1-c1nnc(SCCCC(=O)N2CCOCC2)n1-c1ccccc1,.,-2
CSc1nsc(SC)c1NC(=O)Nc1ccccn1,-1.2,-1
O=C(c1snc2ccc(Cl)cc12)N1CCc2ccccc2C1,1.2,1
CCC(=O)c1ccc(OCC(=O)OC(C)C(=O)Nc2ccc3c(c2)OCO3)cc1 (stereo not drawn),.,11
Cn1c(O)c(/C=N/N2CCOCC2)c2ccccc21,13,18
CCN1CCN(C(=O)c2ccc(/C=C3/Sc4ccccc4N(Cc4ccccc4C)C3=O)cc2)CC1,0.3,-16
COc1ccc(OC2C(=O)N(c3cccc(C(F)(F)F)c3)C2c2ccc(OC)c(OC)c2)cc1 (stereo not drawn),1.2,-15
Nc1ccc2nc(SCC(=O)c3ccc(Br)cc3)sc2c1,0.2,.
COCc1cc(=O)[nH]c2c1c(-c1ccccc1)nn2C,-2.0,.
CCOC(=O)c1cnc2c(ccc3ccccc32)c1NCCOC(=O)C(C)(C)C,1.4,3
COCCn1c(SCC(=O)NC23CC4CC(CC(C4)C2)C3)nnc1-c1ccncc1,.,-12
CC(C)(Oc1ccc(Cl)cc1)C(=O)O,-2.2&-0.9,.
O=C(c1ccccc1)N1N=C(c2ccccc2)CC1c1ccccc1[N+](=O)[O-] (stereo not drawn),1.2,.
Cc1ccc(S(=O)(=O)CC(C)N2CCOCC2)c(S(=O)(=O)CC(C)N2CCOCC2)c1 (stereo not drawn),2.3,6
COC(=O)c1ccc2c(c1)NC(=O)C(C)N2 (stereo not drawn),.,-355
c1cnc(N2CCN(Cc3c[nH]c4ccccc34)CC2)nc1,.,-20
COC(=O)C1=C(C)N(C)C(=O)/C1=C\c1cc(C)n(-c2ccc(C)cc2)c1C,0.7,14
CC1(C)C2CC[C@](C)(C2)C1NC(=O)c1c(Cl)cccc1Cl (stereo partly drawn),1.6,.
CC1=C(C(=O)OCCC(C)C)C(c2ccc(OCc3ccccc3)cc2)NC(=O)N1C (stereo not drawn),3.1,.
O=C(Nc1ccc(NC(=O)C2CC2)nc1)c1cccc(F)c1,-1.9,6
CC1Cc2ccccc2N1C(=O)COC(=O)c1cc2ccccc2oc1=O (stereo not drawn),.,13
CCc1cc(C(=O)O)c(NC(=O)c2ccccc2)s1,-2.5,5
CCCCC(=O)N1c2ccccc2N2C(c3c(C)cc(C)cc3C)=NON12,.,6
Nc1cccc(NC(=O)CCC(=O)NCc2ccco2)c1,-2.0,2
CC1CC(=O)NN=C1c1ccc(Cl)cc1 (stereo not drawn),1.2,8
CC1CN(C)C(C)CC1OC(=O)c1ccccc1 (stereo not drawn),-0.8,-5
COC(=O)Cn1c(=O)c2cccn2c2ccccc21,-0.8,2
CC(OC(=O)c1ccc2c(c1)NC(=O)C1CCCN21)C(=O)Nc1cccc(C#N)c1 (stereo not drawn),.,20
O=C(OCCCn1c(=O)[nH]c2ccccc21)c1ccccc1SCC(=O)N1CCCC1,.,-8
COC(=O)CSc1cc(C)c(Cl)cc1C,1.0,.
COc1ccc(/C(N)=N/OCc2c(Cl)cccc2Cl)cc1,-1.9,.
Nc1c(Sc2ccccc2)c(Sc2ccccc2)c(N)c2c1C(=O)c1ccccc1C2=O,-1.5,.
CCOC(=O)N1CCC(N2CC34C=CC(O3)C(C(=O)Nc3ccc(OCC)cc3)C4C2=O)CC1 (stereo not drawn),1.4,-6
COc1cc(OC)c(OC)cc1CNCc1ccco1,-6.2,-3
